# CSC inhib = cancer stem cell viability inhibitors, primary screen, luminescence | cancer stem cell-like cells viability | inhibition, % at 7.5 µM | actives 1.1% (n = 300,000);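 active = mean at 75% or more and at least half the replicates too; tested in HMLE shEcad cells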;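 also: 0% = median of negative and 100% = median of positive control wells; the first replicate is given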
# Env fusion inh = inhibitors of HIV-1 Env-driven cell-cell fusion, primary screen, HeLa-JRFL effector, CEM21 target cells, luciferase; actives 1.1% (n = 360,000); inhibition, % at 12.3 µM; AID 651610, 2012;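 active = mean replicate inhibition score of at least 50 and every replicate individually at or above 50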;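 also: 0% = plate neutral controls and 100% = maraviroc near 300 nM; one replicate is shown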
# PABP FP inh = PABP poly(A) RNA binding inhibitors, primary screen, biochemical, fluorescence polarization, uHTS. inhibition, % at 35 µM. actives 1% (n = 290,000). AID 2014, 2009;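 active = 50% or more with normal probe brightness, or confirmed in later tests; about a fifth of its hits are not listed in these tables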;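 also: calls also rest on retests at 20 µM and on dose response follow-up; controls were probe without protein and protein plus probe with vehicle; some compounds called inactive have numbers as strong as hits; many hits fall short of the cut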
# Target sequence (P11940 whole entry, looked up): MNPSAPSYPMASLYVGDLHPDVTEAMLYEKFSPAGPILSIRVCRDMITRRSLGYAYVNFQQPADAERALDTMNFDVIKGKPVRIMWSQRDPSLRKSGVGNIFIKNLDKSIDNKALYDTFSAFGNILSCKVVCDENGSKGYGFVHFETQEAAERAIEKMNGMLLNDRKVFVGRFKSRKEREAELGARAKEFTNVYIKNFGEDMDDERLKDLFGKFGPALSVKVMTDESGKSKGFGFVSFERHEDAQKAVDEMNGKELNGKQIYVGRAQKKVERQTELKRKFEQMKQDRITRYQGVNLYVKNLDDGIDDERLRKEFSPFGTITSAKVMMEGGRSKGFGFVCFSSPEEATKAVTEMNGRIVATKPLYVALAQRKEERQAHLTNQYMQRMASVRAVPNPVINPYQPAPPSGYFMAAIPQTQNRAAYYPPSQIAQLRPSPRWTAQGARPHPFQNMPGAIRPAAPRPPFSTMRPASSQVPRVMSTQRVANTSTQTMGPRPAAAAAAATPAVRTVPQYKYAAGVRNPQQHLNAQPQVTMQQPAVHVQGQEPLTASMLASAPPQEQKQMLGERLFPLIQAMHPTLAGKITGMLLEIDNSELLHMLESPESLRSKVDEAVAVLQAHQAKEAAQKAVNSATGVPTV
# eIF4H inh = human eIF4H binding inhibitors, primary screen, translation initiation inhibitor project, biochemical, uHTS, fluorescence polarization; Eukaryotic translation initiation factor 4H (Homo sapiens), Q15056; eIF4H fluorescence polarization binding assay; inhibition, % at 35 µM; actives 0.94% (n = 290,000); AID 2012, 2009;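 active = 50% or more with normal probe brightness, or confirmed in later tests; about a fifth of its hits are not listed in these tables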;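 also: calls also rest on retests at 20 µM and on dose response follow-up; 0% = protein and probe with vehicle and 100% = probe without protein; strong numbers were not always called active; many hits fall short of the cut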
# Rce1 inhib = yeast Rce1p protease inhibitors, primary screen, biochemical, fluorescence, cell-free homogeneous. CAAX prenyl protease 2 (Saccharomyces cerevisiae (strain ATCC 204508 / S288c)), Q03530. yeast membranes, quenched prenylated peptide cleavage fluorescence. calls only. actives 0.27% (n = 290,000). AID 2563, 2010;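 active = fall in fluorescence gain of 50% or more versus controls, with final raw signal at or below 3038400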;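 also: plate controls were neutral control wells for no effect and wells lacking membranes for full effect; tested at 10 µM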
# UUG fidelity = modulators of yeast start codon fidelity, primary screen, whole organism, S. cerevisiae, single point, plate reader; actives 0.13% (n = 350,000); activity score, % at 18.7 µM; S. cerevisiae UUG-firefly luciferase reporter, luminescence/redox ratio;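 active = replicate mean at a twofold rise or more, about +100% in these data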;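 also: firefly luciferase made from a UUG start codon reports start codon fidelity; reporter light over untreated wells divided by growth signal over untreated wells; some hits fall short of that in this replicate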
# MT1-MMP act inh = blockers of MT1-MMP proenzyme processing, primary screen, HT1080 RFP-PRO-GFP cells, GFP/RFP fluorescence; actives 0.061% (n = 360,000); GFP/RFP ratio change, % at 20 µM; AID 651647, 2012; Matrix metalloproteinase-14 (Homo sapiens), P50281; GFP/RFP ratio fluorescence, overnight; percent of plate control window, DMSO zero;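 active = GFP/RFP ratio change of at least 30% with cell ATP level not reduced by more than half and red fluorescence within 50% of control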; also: strong numbers were not always called active
#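 Assay system: HT1080 cells carrying an RFP-PRO-GFP reporter | Dosing: Single dose of 20 µM compound, 1% DMSO final | Incubation: Cells overnight before dosing, compound overnight, 37 °C, 5% CO2 | Evaluation: GFP/RFP fluorescence ratio | Control set: DMSO and RFP-L50D-GFP cell wells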
# MT1-MMP act inh RFP = further read-out of MT1-MMP act inh, marked with its call; RFP signal change, %; measured here: RFP expression control read;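 0 = vehicle wells; hits needed this value within 50% of zero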
# Numbers without * were called inactive; i = inactive; . = not tested or not shown; & = joins results of further samples; ! = not active in a repeat.
Compound,eIF4H inh,MT1-MMP act inh RFP,UUG fidelity,MT1-MMP act inh,Env fusion inh,Rce1 inhib,PABP FP inh,CSC inhib
COc1ccccc1N1C(=O)CSC1=S,-14,0,-21,2,-15,i,-3,-14
CS(=O)(=O)N1CCC(Oc2cccc(C(=O)NCCCC3CCCC3)c2)CC1,4,-20,2,6,.,i,10,8
CC(=O)N1CCN(c2ccc(NC(=O)COc3ccc(Cl)cc3Cl)cc2)CC1,-5,-17,-8,6,53*,i,-1,4
Cn1c(=O)c2[nH]c(=O)cnc2n(C)c1=S,1,3,.,-9,-12,i,-1,14
CC(=O)C1=C(C)NC(SCC(=O)c2ccc(Cl)c(Cl)c2)=C(C#N)C1c1ccco1 (stereo unspecified),71*,7,-3,-87,.,i,60*,157*
Cc1cc(C(=O)NNC(=O)COc2c(C)cc(Br)cc2C)n[nH]1,1,-3,-12,-7,-256,i,7,-6
Cc1ccc(C(=O)N/C(=C\c2cccs2)C(=O)NCCCn2ccnc2)cc1C,-12,-1,-6,-3,.,i,7,-2
Cc1ccc(S(=O)(=O)N2CCN(C(=O)N3CCOCC3)C2c2ccc(N(C)C)cc2)cc1 (stereo unspecified),1,2,-19,2,-13,i,14,-3
Cc1c(C)[n+](=O)c2c(n1[O-])CCC2,-9,5,-20,-1,.,i,-2,9
COc1ccccc1NC(=S)N(CCc1nc2cc(C)c(C)cc2[nH]1)Cc1cccnc1,7,2,-13,-1,.,i,14,-9
Cc1cc(NC(=O)c2ccccc2F)n(-c2nc3ccccc3[nH]2)n1,3,-6,-24,-3,-72,i,-9,19
CC(=O)Nc1nc2c(F)cccc2s1,.,0,-16,10,-37,i,.,4
O=C(CN1C(=O)c2ccccc2S1(=O)=O)c1ccc(O)c(O)c1,2,3,165*,4,23,i,-2,-4
COc1ccc(-c2csc(NC(=O)c3cc(-c4cccs4)nc4ccccc34)n2)c(OC)c1,-6,-1,2,-2,-13,i,-18,1
CCOc1cc(C(=O)N/N=C\c2cn(CC)nc2C)cc(OCC)c1OCC,-3,4,-18,10,-14,i,2,-2
COc1cc(S(=O)(=O)Nc2cccc(C)c2)ccc1N=Cc1c(C)[nH]n(-c2ccccc2)c1=O,-9,.,.,.,.,i,-4,45
CCC(C)c1ccccc1N1CC(C(=O)N(C)CC(=O)Nc2cccc(F)c2)CC1=O (stereo unspecified),.,2,22,-1,-23,i,.,-8
CCOc1ccc(S(=O)(=O)N2CCCC(C(=O)Nc3cc(C)cc(C)c3)C2)cc1 (stereo unspecified),-13,-36,-12,-52,2,i,7,-7
COc1cccc(C(=O)N(Cc2cc3cc(C)ccc3[nH]c2=O)CC2CCCO2)c1 (stereo unspecified),-8,-7,-19,-8,-79,i,-5,-5
COc1ccc(NC(=O)CN(C)C(=O)C23CC4CC(CC(C4)C2)C3)cc1,-9,0,8,0,.,i,6,-8

# Other structures follow.
Compound,eIF4H inh,MT1-MMP act inh RFP,UUG fidelity,MT1-MMP act inh,Env fusion inh,Rce1 inhib,PABP FP inh,CSC inhib
Cn1cnnc1SCCOc1ccc(Cl)cc1,-12,0,.,0,4,i,2,-4
NNC(=O)c1ccc(-c2cccc([N+](=O)[O-])c2)o1,7,5,.,8,-21,i,5,-5
COCC(C)n1c(-c2ccc3c(c2)NC(=O)CO3)csc1=Nc1ccc(OC(F)F)cc1 (stereo unspecified),-8,-29&-26,-2,-9&-13,83*!,i,-4,23
CC1=NOC(=O)/C1=C\c1ccc2c(c1)OCO2,-4,2,.,0,9,i,-10,-8
CCCNC(=O)c1ccc(CN2CCOCC2)cc1,1,6,.,2,-18,i,-2,2
NC(=NC(=O)c1ccccc1)N1N=CCC1c1ccccc1 (stereo unspecified),-2,5,.,11,23,i,6,1
NC(=O)c1cc2ccccc2o/c1=N\NC(=O)c1ccc(F)cc1,-8,-4,-3,-3,-1,i,-3,-2
Cc1noc(C)c1C(=O)Nc1ccc2ccccc2c1,-3,6,-7,0,-13,i,-3,-5
Cc1ccc(NC(=O)N2CCCC2C(=O)NCCC2=CCCCC2)cc1 (stereo unspecified),-10,6,-14,-1,21,i,-2,-12
COc1ccc(Cn2c(C)nnc2-c2cnn(C)c2N)cc1OC,-1,2,.,0,-14,.,-10,-1
Cc1ccc2c(c1)NC(=O)CC(c1ccccc1)=N2,-14,2,-1,0,.,i,-12,-7
Cc1ccc(C(=O)OCC(=O)NC2CCCCC2)o1,.,1,-13,-2,6,i,.,10
COc1ccccc1N1CCN(C/C(O)=C(\C#N)c2nc(-c3ccccc3)cs2)CC1,-15,-1,-14,7,.,i,14,-6
Cc1cccc(C)c1NC(=O)CNC(=O)c1cn(-c2ccccc2)nc1-c1ccccc1,-3,0,19,-3,-11,i,5,10
COc1cc(NS(=O)(=O)c2ccc(NC(=S)NC(=O)C(C)(C)C)cc2)nc(OC)n1,-2,-3,5,2,.,i,-4,-9
Cc1ccc(CC(NC(=O)c2ccccc2)C(=O)N2CCCC2C(=O)O)cc1 (stereo unspecified),-8,6,-6,0,-12,i,10,-9
COc1ccc(NC(=O)CSc2nc3sc(C)cc3c(=O)n2C)c(OC)c1,1,-10,11,1,16,i,0,24
CCCCC(=O)N(C)c1c(C)nc2ccc(C(=O)N3CCN(C(=O)c4ccco4)CC3)cn12,.,6,-8,2,-11,.,.,.
CCN(C(=O)COC(=O)c1ccccc1SCC(=O)NC1CCCCCCC1)C1CCS(=O)(=O)C1 (stereo unspecified),4,2,-3,3,5,i,-3,-1
COC(=O)Cc1[nH]nc2c1C1(C(=O)N(Cc3ccc(Cl)cc3)c3ccccc31)C(C#N)=C(N)O2 (stereo unspecified),-13,-5,-10,-11,36,i,-14,17

# Continuation.
Compound,eIF4H inh,MT1-MMP act inh RFP,UUG fidelity,MT1-MMP act inh,Env fusion inh,Rce1 inhib,PABP FP inh,CSC inhib
CC(=O)c1cccc(S(=O)(=O)NC2CCCCCC2)c1,7,2,.,1,5,i,-6,.
CCn1c(SCC(=O)NC2CCCC2)nnc1-c1c[nH]c2ccccc12,6,1,-21,-3,19,i,3,-5
CCOc1ccc(N2C(=O)CC(NCCc3ccncc3)C2=O)cc1 (stereo unspecified),-12,4,-10,3,.,i,-13,.
CCCCn1c(N)c(N(CC(C)C)C(=O)CSc2nnc(C)n2-c2ccc(OC)cc2)c(=O)[nH]c1=O,.,-2,.,0,11,i,.,.
CCC1(C)Cc2c(sc3[nH]c(=S)n(Cc4ccccc4)c(=O)c23)CO1 (stereo unspecified),4,-10,-21,-4,.,i,-1,0
Cc1cc(/C(N)=N/OC(=O)Nc2ccc(Cl)cc2)no1,-3,-2,2,-2,-10,i,5,9
Cc1cc(C)c(C#N)c(SCc2nnc(-c3ccccc3)o2)n1,-6,-5,-14,-2,-97,i,4,.
Cc1ccc(NC(=O)NCCCCc2ccccc2)cc1,-8,-2,-13,-1,-5,i,-1,13
Cc1nnc(NC(=O)c2ccccc2C(=O)O)s1,0,2,-14,7,-54,i,14,-13
CC(C)(Oc1ccc(Cl)cc1)C(=O)N1CCN(c2ccccn2)CC1,-6,-6,8,-1,.,i,4,-8
Nc1ccc(N2C(=O)c3ccccc3C2=O)c(Cl)c1,.,2,-6,2,9,.,.,-8
Cc1ccc(S(=O)(=O)N2CCOCC2)cc1NC(=O)COC(=O)CCn1c(C)csc1=O,-13,2,-2,2,2,i,2,.
O=C(c1ccc(F)cc1)c1cn[nH]c1-c1ccccc1O,8,0,-9,1,8,i,4,-10
CCc1ccc(/C=C2\SC(=S)N(CCC(=O)NCCCN3CCOCC3)C2=O)cc1,-13,-1,-41,2,-25,i,7,-3
CC(C)Nc1nc(NC(C)C)nc(N(C)C(N)=O)n1,-1,1,4,0,-15,i,1,12
COc1ccccc1-c1c(C)nn2c(N3CCC(C(N)=O)CC3)cc(C)nc12,16,4,3,1,5,i,-5,-9
CSc1ccccc1C(=O)NCCOc1cccc(C)c1,-2,0,.,-4,-9,i,-3,-12
O=C(NCc1ccccc1Cl)c1ccc2nc[nH]c2c1,-11,1,.,-5,-5,i,-16,10
O=C(O)C(=O)Nc1ncn[nH]1,.,2,-20,-1,-20,.,.,.
COc1ccc(C)cc1Nc1ccc(C(=O)O)cc1[N+](=O)[O-],-10,-2,.,7,28,i,-8,-9

# Additional compounds.
Compound,eIF4H inh,MT1-MMP act inh RFP,UUG fidelity,MT1-MMP act inh,Env fusion inh,Rce1 inhib,PABP FP inh,CSC inhib
O=C(NC(=S)N1CCc2ccccc21)c1ccccc1Br,-10,4,-9,7,-13,i,-1,5
COc1ccc(NC(=O)c2ccc(Cl)nc2)cc1S(=O)(=O)N1CCOCC1,.,-2,0,1,3,.,.,8
COc1ccc(C2OC(=O)CC2C(=O)NC(C)C)cc1 (stereo unspecified),-16,3,-28,2,-15,.,-16,-6
Cc1ccc(S(=O)(=O)n2nc(OC(=O)c3c(-c4ccccc4Cl)noc3C)cc2N)cc1,0,-3,-17,-3,.,i,2,33
Cc1ccc(N(CC(=O)Nc2ccccc2C(=O)N2CCOCC2)S(C)(=O)=O)cc1,-2,0,19,1,11,i,-4,.
COc1ccc(CCNC(=O)CSCc2ccc(Cl)cc2)cc1OC,-2,-2,.,-1,9,i,-3,-3

# Retrieved one by one from the list above:
Compound,eIF4H inh,MT1-MMP act inh RFP,UUG fidelity,MT1-MMP act inh,Env fusion inh,Rce1 inhib,PABP FP inh,CSC inhib
COc1ccc(NC(=O)c2ccc(Cl)nc2)cc1S(=O)(=O)N1CCOCC1,.,-2,0,1,3,.,.,8
O=C(NC(=S)N1CCc2ccccc21)c1ccccc1Br,-10,4,-9,7,-13,i,-1,5

# Sorted by molar mass (ascending): five of the compounds above
Compound,eIF4H inh,MT1-MMP act inh RFP,UUG fidelity,MT1-MMP act inh,Env fusion inh,Rce1 inhib,PABP FP inh,CSC inhib
O=C(NC(=S)N1CCc2ccccc21)c1ccccc1Br,-10,4,-9,7,-13,i,-1,5
COc1ccc(CCNC(=O)CSCc2ccc(Cl)cc2)cc1OC,-2,-2,.,-1,9,i,-3,-3
COc1ccc(NC(=O)c2ccc(Cl)nc2)cc1S(=O)(=O)N1CCOCC1,.,-2,0,1,3,.,.,8
Cc1ccc(N(CC(=O)Nc2ccccc2C(=O)N2CCOCC2)S(C)(=O)=O)cc1,-2,0,19,1,11,i,-4,.
Cc1ccc(S(=O)(=O)n2nc(OC(=O)c3c(-c4ccccc4Cl)noc3C)cc2N)cc1,0,-3,-17,-3,.,i,2,33

# High-throughput results as filed in PubChem BioAssay.
